# Screens as filed in PubChem.
# Shh pathway inh: blocks Sonic Hedgehog signaling. Shh-LIGHT2 Gli-luciferase reporter, 30 h. 22,000 tested, 2.1% active. inhibition, % (concentration not given with the values);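 active means replicate mean of 65% or more; inconclusive means mean lower but half the replicates past it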;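 further: pathway switched on by Shh-conditioned medium diluted 1 in 25 in low serum; 100 nL library stock added to about 40 µL; 0% = median of neutral wells and 100% = positive control level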
# MITF inhib: blocks MITF activity. TRPM1 promoter luciferase, luminescence, 24 h. inhibition, % (test concentration not listed). 37,000 tested, 0.28% active. AID 2240;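 active means most replicates at 85% or more, or half of them and the mean; inconclusive means half reach 85% but not the mean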;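 further: human melanocyte line stably carrying TRPM1 promoter luciferase reporter; 0% = vehicle wells and 100% = a positive control; the first replicate is given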
# PD-1 reversal: activators reversing PD-1 mediated T-cell inhibition. activation, % (test concentration not listed). AID 2316. 29,000 tested, under 10 active. primary human CD4 T cells, PD-L1 beads, CellTiter-Glo 96 h;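 active means replicate mean of 50% or more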;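 further: 0% = median vehicle wells and 100% = positive control; 100 nL library stock added to about 50 µL; numbers are from one replicate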
# YB-1 expression: YB-1 expression inhibition | U2OS, qRT-PCR YB-1 vs CDIP delta delta Cp, 16 h; stronger effect = higher value; zero = DMSO, each unit about twofold | delta delta Cp (YB-1 minus CDIP) (concentration not given with the values) | 30,000 tested, 0.37% active | AID 434959;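 active means delta delta Cp rounded down to an integer at or above 3, about 3 SD of DMSO wells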;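 further: higher means less YB-1 transcript or more CDIP transcript relative to DMSO; stock transfer was 100 nL into about 100 µL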
# * = called active by the depositor; ? = inconclusive; / = not tested or not shown; & = joins results of further samples. A portion of the library (hit frequency here may not be typical).
SMILES,Shh pathway inh,MITF inhib,PD-1 reversal,YB-1 expression
C[C@@H]1CCCCO[C@H](CN(C)S(=O)(=O)c2cccs2)[C@@H](C)CN([C@H](C)CO)C(=O)c2cc(N(C)C)ccc2O1,-6,-11,/,-0.11
C[C@H](CO)N1C[C@H](C)[C@@H](CN(C)Cc2ccc(C(=O)O)cc2)Oc2ccc(NC(=O)Cc3ccccc3)cc2C1=O,/,-1,0.4,0.047
C[C@H](CO)N1C[C@H](C)[C@H](CN(C)S(=O)(=O)c2ccccc2)Oc2ccc(NC(=O)Nc3ccc4c(c3)OCO4)cc2CC1=O,-4,17,0.0,-0.055
C[C@H](CO)N1C[C@H](C)[C@H](CN(C)CC2CC2)Oc2ccc(NC(=O)C3CC3)cc2CC1=O,-21,-12,/,0.24
O=c1cc(N2CCOCC2)oc2c(-c3ccccc3)cccc12,71*,36,-16,0.11
Cc1cc(C)c(OCC(O)CNC(C)(C)C)c(C)c1 (configuration not stated),-11,0,-0.3,0.15
C[C@H]1CN([C@@H](C)CO)C(=O)c2cc(NC(=O)C3CCCCC3)ccc2O[C@H]1CN(C)S(C)(=O)=O,-9,-18,-0.8,-0.15
COc1ccccc1NC(=O)Cn1c(C(F)(F)F)nc2ccccc21,/,-3,-2.8,/
C[C@H](CO)N1C[C@H](C)[C@H](CN(C)C)Oc2c(NC(=O)Nc3cccc4ccccc34)cccc2C1=O,1,12,0.5,-0.16
COc1ccc(CN(C)C[C@@H]2Oc3c(NS(C)(=O)=O)cccc3C(=O)N([C@H](C)CO)C[C@@H]2C)cc1,-16,-1,0.8,0.61
C[C@@H]1CCCCO[C@H](CN(C)C(=O)c2ccccc2)[C@@H](C)CN([C@H](C)CO)C(=O)c2cc(NC(=O)Nc3ccccc3)ccc2O1,4,-18,/,0.036
C[C@H](CO)N1C[C@H](C)[C@H](CN(C)Cc2ccc(Oc3ccccc3)cc2)Oc2c(NC(=O)C3CCCCC3)cccc2C1=O,39,9,-1.6,0.73
COc1ccc(S(=O)(=O)N(C)C[C@H]2Oc3ccc(N(C)C)cc3CC(=O)N([C@@H](C)CO)C[C@@H]2C)cc1,-18,-7,-1.8,-0.038
CC1CC(=O)C2C(O)(C1)CC(O)C13OC1c1c(O)cccc1C(=O)C23O (configuration not stated),-10,9,-3.9,-0.62
C[C@@H]1CN([C@@H](C)CO)C(=O)c2cccc(NC(=O)c3ccncc3)c2O[C@H]1CN(C)Cc1ccc2c(c1)OCO2,26,-2,-1.4,0.39
COc1cccc(NC(=O)CN(c2ccc(C)cc2C)S(C)(=O)=O)c1,/,3,2.1,/
C[C@@H]1CN([C@H](C)CO)C(=O)c2cccc(NC(=O)c3ccncc3)c2O[C@@H]1CN(C)Cc1ccc(C(F)(F)F)cc1,-1,-5,/,0.61
CC(C)NC(=O)N(C)C[C@@H]1Oc2ccc(N(C)C)cc2CC(=O)N([C@@H](C)CO)C[C@@H]1C,?,2,2.3,0.32
CSc1nsc(SCC(=O)Nc2ccc(C(C)=O)cc2)n1,/,-60,1.0,/
COc1ccc(OC)c(CCCc2cc(OC)ccc2OC)c1,-29,-23,-0.7,10*

# Five compounds out of the list, arranged by molar mass, falling.
SMILES,Shh pathway inh,MITF inhib,PD-1 reversal,YB-1 expression
COc1ccc(S(=O)(=O)N(C)C[C@H]2Oc3ccc(N(C)C)cc3CC(=O)N([C@@H](C)CO)C[C@@H]2C)cc1,-18,-7,-1.8,-0.038
C[C@H](CO)N1C[C@H](C)[C@H](CN(C)C)Oc2c(NC(=O)Nc3cccc4ccccc34)cccc2C1=O,1,12,0.5,-0.16
COc1ccccc1NC(=O)Cn1c(C(F)(F)F)nc2ccccc21,/,-3,-2.8,/
O=c1cc(N2CCOCC2)oc2c(-c3ccccc3)cccc12,71*,36,-16,0.11
Cc1cc(C)c(OCC(O)CNC(C)(C)C)c(C)c1 (configuration not stated),-11,0,-0.3,0.15

# Later entries
SMILES,Shh pathway inh,MITF inhib,PD-1 reversal,YB-1 expression
COc1cc(/C=C/C(=O)NCC(O)c2ccc(O)cc2)ccc1O (configuration not stated),-16,/,/,-0.59
C/C=C/c1ccc(OCCCSc2nc(C)cc(=O)[nH]2)c(OC)c1,/,-3,2.9,/
COc1cc(OC)c2ccc(=O)oc2c1CC(O)C(C)(C)OC (configuration not stated),-11,11,-0.5,-0.35
CC(C)(C)[C@]1(O)CCN2C[C@H]3c4ccccc4CCc4cccc(c43)[C@@H]2C1,78*,30,/,-0.74
COc1cc(CO)cc(Cl)c1OCc1cccc(C(=O)O)c1,/,-62,-0.3,/
O=C(CSCc1c(Cl)cccc1Cl)Nc1cccnc1,/,-36,-1.8,/
CSc1nc2cc(C)nn2c(-c2ccc(C(C)(C)C)cc2)c1C#N,-12,-4,4.0,-0.16
C[C@H](CO)N1C[C@H](C)[C@H](CN(C)Cc2ccc(C(F)(F)F)cc2)Oc2ccc(NS(=O)(=O)c3cccs3)cc2C1=O,/,-1,/,-0.28
C[C@H]1CN([C@@H](C)CO)C(=O)Cc2cc(NC(=O)Cn3cnnn3)ccc2O[C@H]1CN(C)C(=O)Nc1ccc(F)cc1,-6,-1,/,0.11
C[C@H]1CN([C@@H](C)CO)C(=O)c2cc(NC(=O)Nc3ccc(C(F)(F)F)cc3)ccc2O[C@@H]1CN(C)S(=O)(=O)c1ccc(F)cc1,/,22,-0.5,0.47
C[C@@H]1CN([C@@H](C)CO)C(=O)c2cc(NC(=O)CCCCCC(=O)Nc3ccccc3N)ccc2O[C@@H]1CN(C)C(=O)Nc1ccc2c(c1)OCO2,/,-21,-0.6,-0.19
C[C@@H]1CN([C@H](C)CO)C(=O)c2cccc(NC(=O)CCCCCC(=O)Nc3ccccc3N)c2O[C@H]1CN(C)S(C)(=O)=O,/,-15,1.2,-0.048
CCCCCCCC(O)C(O)C1CC(OC)=CC(=O)O1 (configuration not stated),-9,-1,0.3,-0.04
CN(Cc1nc(-c2ccccn2)no1)S(=O)(=O)c1ccc(Br)cc1,/,-17,-1.7,/
C[C@H]1CN([C@@H](C)CO)C(=O)Cc2cc(NS(=O)(=O)c3ccc(Cl)cc3)ccc2O[C@H]1CN(C)CC1CCCCC1,23,47,-12,0.37
CSc1ccc2c(c1)C(N1CCN(C)CC1)Cc1ccccc1S2 (configuration not stated),70*,-16&-13,-0.8,0.011&-0.58
C[C@@H]1CN([C@H](C)CO)C(=O)Cc2cc(NC(=O)CCCCCC(=O)Nc3ccccc3N)ccc2O[C@H]1CN(C)Cc1ccc(C(F)(F)F)cc1,/,12,0.7,-0.95
COc1ccc(S(=O)(=O)Nc2ccc3c(c2)C(=O)N([C@@H](C)CO)C[C@@H](C)[C@H](CN(C)C(=O)Nc2ccc(C(F)(F)F)cc2)O3)cc1,24,3,0.9,-0.12
CCOC(=O)c1cc(-c2ccc(Cl)cc2)[nH]c(=O)c1C#N,9,7,-0.4,-0.028
O=C(CSc1nnnn1-c1ccc(F)cc1)c1ccc(O)c(O)c1,/,16,-2.1,/
Cc1ccc(S(=O)(=O)N(C)C[C@@H]2Oc3c(NC(=O)Nc4ccc5c(c4)OCO5)cccc3C(=O)N([C@H](C)CO)C[C@H]2C)cc1,10,3,-0.7,-0.054
COc1ccc(S(=O)(=O)N(C)C[C@H]2Oc3c(NC(=O)Nc4ccc5c(c4)OCO5)cccc3C(=O)N([C@@H](C)CO)C[C@H]2C)cc1,-7,19,-3.3,0.28
CCOC(=O)c1sc2ncn(CC(=O)Nc3ccc(C(C)=O)cc3)c(=O)c2c1C,/,2,0.4,/
CCOc1ccc(N=C2NC(=O)C(CC(=O)Nc3ccc(OC)cc3)S2)cc1 (configuration not stated),/,-16,0.6,/
Cc1ccc2c(=O)c(C(=O)c3ccccc3)coc2c1,/,-18,-0.4,0.2
C[C@H](CO)N1C[C@H](C)[C@H](CN(C)CC2CCCCC2)Oc2c(NC(=O)c3cnccn3)cccc2C1=O,-17,-4,0.9,-0.018
C[C@H]1CN([C@@H](C)CO)C(=O)Cc2cc(NC(=O)Nc3ccc4c(c3)OCO4)ccc2O[C@H]1CN(C)S(=O)(=O)c1cn(C)cn1,-17,-6,/,-0.023
COc1ccc(S(=O)(=O)N(C)CC(=O)Nc2ccc(C(N)=O)cc2)cc1,/,-14,1.9,/
C[C@H](CO)N1C[C@H](C)[C@H](CN(C)C(=O)Nc2ccccc2)Oc2ccc(NC(=O)Cn3cnnn3)cc2CC1=O,/,-3,/,-0.14
Cc1noc(C)c1NC(=O)N(C)C[C@@H]1Oc2ccc(NS(=O)(=O)c3ccc(Cl)cc3)cc2CC(=O)N([C@H](C)CO)C[C@@H]1C,-12,3,/,0.23
C[C@H]1CN([C@@H](C)CO)C(=O)c2cc(NC(=O)Nc3ccc(C(F)(F)F)cc3)ccc2O[C@H]1CN(C)S(=O)(=O)c1cn(C)cn1,5,4,0.0,0.062
C[C@H](CO)N1C[C@H](C)[C@@H](CN(C)C(=O)Nc2ccc(C(F)(F)F)cc2)Oc2ccc(NC(=O)Cn3cnnn3)cc2C1=O,-19,6,/,-0.11
C[C@@H]1CN([C@@H](C)CO)C(=O)Cc2cc(NC(=O)Cc3cn(C)c4ccccc34)ccc2O[C@@H]1CN(C)S(=O)(=O)c1cccs1,/,21,-1.4,-0.33
COc1ccc(CN(C)C[C@H]2Oc3ccc(NS(=O)(=O)c4ccc(OC)cc4)cc3C(=O)N([C@@H](C)CO)C[C@@H]2C)cc1,-24,6,-0.2,0.37
COc1ccc(CN(C)C[C@H]2Oc3ccc(NS(=O)(=O)c4ccc(C)cc4)cc3CC(=O)N([C@@H](C)CO)C[C@@H]2C)cc1,12,8,/,-0.12
CNC[C@H]1Oc2ccc(NS(=O)(=O)c3c(C)noc3C)cc2C(=O)N([C@H](C)CO)C[C@@H]1C,-12,-10,-0.1,0.059
C[C@H](CO)N1C[C@H](C)[C@H](CN(C)C(=O)Nc2ccc(C(F)(F)F)cc2)Oc2c(NC(=O)C3CCOCC3)cccc2C1=O,/,3,/,-0.17
CC(C)NC(=O)Nc1cccc2c1O[C@H](CN(C)C(=O)NC(C)C)[C@@H](C)CN([C@H](C)CO)C2=O,-20,9,1.9,0.51
C[C@@H]1CN([C@H](C)CO)C(=O)c2cc(NS(=O)(=O)c3cn(C)cn3)ccc2O[C@H]1CN(C)S(=O)(=O)c1ccc(Cl)cc1,/,0,2.7,/
CC(C)NC(=O)N(C)C[C@@H]1Oc2c(NC(=O)CCCCCC(=O)Nc3ccccc3N)cccc2C(=O)N([C@H](C)CO)C[C@H]1C,/,-25,0.7,-0.27
C[C@H]1CN([C@@H](C)CO)C(=O)c2cc(NS(=O)(=O)c3ccc(F)cc3)ccc2O[C@H]1CN(C)CC1CC1,/,-9,-4.4,0.61
C[C@@H]1CN([C@H](C)CO)C(=O)c2cc(NS(=O)(=O)c3cn(C)cn3)ccc2O[C@H]1CN(C)Cc1ccc(C(=O)O)cc1,-4,-1,1.5,0.003
C[C@H]1CN([C@@H](C)CO)C(=O)c2cc(NC(=O)c3ccncc3)ccc2O[C@H]1CN(C)C(=O)Nc1ccc2c(c1)OCO2,/,2,1.2,-0.26
O=C(/C=N/O)Nc1cc(C(F)(F)F)cc(C(F)(F)F)c1,69*,24,1.0,-0.58
O=C(NCCCn1ccnc1)NC(C(F)(F)F)C(F)(F)F,/,-7,1.3,/
O=C(Cn1cc(C(=O)c2ccco2)c2ccccc21)Nc1ccccc1C(F)(F)F,/,37,-0.5,/
C[C@H]1CN([C@@H](C)CO)C(=O)Cc2cc(NS(C)(=O)=O)ccc2O[C@H]1CN(C)S(=O)(=O)c1ccc(F)cc1,-7,0,0.5,0.022
Cc1cc(=O)[nH]c(SC(C)C(=O)Nc2ccc(Cl)cc2)n1 (configuration not stated),/,9,0.2,/
Cc1noc(C)c1S(=O)(=O)Nc1ccc2c(c1)C(=O)N([C@H](C)CO)C[C@@H](C)[C@@H](CN(C)C)O2,-21,16,/,0.33
O=C(Cn1c(NCCO)nc2ccccc21)c1cccc([N+](=O)[O-])c1,/,-14,1.5,/
C[C@@H]1CN([C@H](C)CO)C(=O)c2cc(NC(=O)Nc3ccc(C(F)(F)F)cc3)ccc2O[C@H]1CN(C)Cc1ccc(Oc2ccccc2)cc1,-31,0,/,-0.19
CCN(CC(=O)Nc1ccc2c(c1)OCCO2)S(=O)(=O)c1ccc2ccccc2c1,/,-20,3.6,/
COc1cc(NC(=O)COc2ccc(C)c(C)c2)ccc1NC(=O)c1ccccc1Cl,/,-2,1.6,/
COc1ccc(S(=O)(=O)Nc2cccc3c2O[C@@H](CN(C)S(=O)(=O)c2ccc(OC)cc2)[C@H](C)CN([C@H](C)CO)C3=O)cc1,4,5,/,0.077
COc1ccc(S(=O)(=O)Nc2ccc3c(c2)CC(=O)N([C@@H](C)CO)C[C@@H](C)[C@@H](CN(C)CC2CC2)O3)cc1,/,-8,1.2,-0.74
